GIRK2 activ = GIRK2 channel activation; HEK293-GIRK2 thallium flux, Thallos fluorescence; calls only for hits at 25 µM; hit rate 0.05% among 63,000;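 active means among the strongest 0.2% of first-round signals and kept after retests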;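 further: first round at about 10 µM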
Target sequence (P48051 whole entry, looked up): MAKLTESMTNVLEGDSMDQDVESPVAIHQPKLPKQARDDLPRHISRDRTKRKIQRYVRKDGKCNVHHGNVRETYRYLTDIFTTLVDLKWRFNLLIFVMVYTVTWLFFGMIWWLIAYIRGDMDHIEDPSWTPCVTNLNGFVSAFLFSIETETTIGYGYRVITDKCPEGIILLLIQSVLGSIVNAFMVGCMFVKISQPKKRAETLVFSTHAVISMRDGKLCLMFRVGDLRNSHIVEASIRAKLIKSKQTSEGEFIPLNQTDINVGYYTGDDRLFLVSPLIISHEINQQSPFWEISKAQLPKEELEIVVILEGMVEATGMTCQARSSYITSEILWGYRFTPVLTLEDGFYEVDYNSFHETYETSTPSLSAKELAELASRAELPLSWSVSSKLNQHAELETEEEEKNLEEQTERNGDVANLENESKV
Calls only; i = inactive. Only part of the results is shown; the hit share may differ from the screen's.

Sample of the layout (20 entries):
GIRK2 activ | structure
i | COc1ccc(C2CC3C4NN=C(CCC(=O)NCc5cccnc5)N4C=CN3N2)cc1 (centres undefined)
i | COc1ccc(CCNC(=O)NCC(C)(O)c2ccco2)cc1 (centres undefined)
i | CCOc1ccc(S(=O)(=O)Nc2cc(N3CCN(c4ccccc4)CC3)ncn2)cc1
i | CC(=O)c1ccc(N2CCN(C(=O)CCn3c(=S)[nH]c4cc5c(cc4c3=O)OCO5)CC2)cc1
i | C#CCOCC1CCN(C(=O)C2CCN(S(C)(=O)=O)CC2)CC1
i | COc1ccc(N2CC(C)Cn3c2nc2c3c(=O)n(CC(=O)O)c(=O)n2C)cc1 (centres undefined)
i | O=C(NC1(c2nc(-c3ccncc3)no2)CCCCC1)c1ccc(F)c(Cl)c1
i | O=C(Cn1c(=O)n(Cc2ccc(F)cc2)c(=O)c2sccc21)c1ccc(F)cc1
i | COc1ccccc1NC(=O)NCCC(O)c1ccc2c(c1)OCO2 (centres undefined)
i | CC1CCN(S(=O)(=O)c2cccn(CC(=O)Nc3cc(F)ccc3F)c2=O)CC1
i | COC(=O)c1ccc(NC(=O)c2coc(NC(=O)c3cc(C)on3)n2)cc1
i | COCCNC(=O)C(=O)NCC(C)(O)CSC (centres undefined)
i | COc1ccc2cc(C(=O)NC3CC(O)C(CO)C3)[nH]c2c1 (centres undefined)
i | CC(C)c1ccccc1NC(=O)c1cc(-c2ccc(F)cc2)c[nH]1
i | CCOc1ccc(S(=O)(=O)N2CCCC(c3nnc(Cc4ccc(F)cc4)o3)C2)cc1 (centres undefined)
i | CCc1nc2sc(C(c3ccc(F)c(F)c3)N3CCCC3)c(O)n2n1 (centres undefined)
i | O=C(CSc1nnc2scc(-c3ccc(Cl)cc3)n12)NCc1ccco1
i | Cc1nc2ccccn2c1C(=O)NCc1cccs1
i | COc1ccc(C(O)=C2C(=O)C(=O)N(c3cc(C)on3)C2c2ccc([N+](=O)[O-])cc2)cc1C (centres undefined)
i | O=C(NCc1ccc2c(c1)OCO2)c1c(O)c2cccnc2[nH]c1=O

Main list, repeating the preview:
GIRK2 activ | structure
i | COc1ccc(C2CC3C4NN=C(CCC(=O)NCc5cccnc5)N4C=CN3N2)cc1 (centres undefined)
i | COc1ccc(CCNC(=O)NCC(C)(O)c2ccco2)cc1 (centres undefined)
i | CCOc1ccc(S(=O)(=O)Nc2cc(N3CCN(c4ccccc4)CC3)ncn2)cc1
i | CC(=O)c1ccc(N2CCN(C(=O)CCn3c(=S)[nH]c4cc5c(cc4c3=O)OCO5)CC2)cc1
i | C#CCOCC1CCN(C(=O)C2CCN(S(C)(=O)=O)CC2)CC1
i | COc1ccc(N2CC(C)Cn3c2nc2c3c(=O)n(CC(=O)O)c(=O)n2C)cc1 (centres undefined)
i | O=C(NC1(c2nc(-c3ccncc3)no2)CCCCC1)c1ccc(F)c(Cl)c1
i | O=C(Cn1c(=O)n(Cc2ccc(F)cc2)c(=O)c2sccc21)c1ccc(F)cc1
i | COc1ccccc1NC(=O)NCCC(O)c1ccc2c(c1)OCO2 (centres undefined)
i | CC1CCN(S(=O)(=O)c2cccn(CC(=O)Nc3cc(F)ccc3F)c2=O)CC1
i | COC(=O)c1ccc(NC(=O)c2coc(NC(=O)c3cc(C)on3)n2)cc1
i | COCCNC(=O)C(=O)NCC(C)(O)CSC (centres undefined)
i | COc1ccc2cc(C(=O)NC3CC(O)C(CO)C3)[nH]c2c1 (centres undefined)
i | CC(C)c1ccccc1NC(=O)c1cc(-c2ccc(F)cc2)c[nH]1
i | CCOc1ccc(S(=O)(=O)N2CCCC(c3nnc(Cc4ccc(F)cc4)o3)C2)cc1 (centres undefined)
i | CCc1nc2sc(C(c3ccc(F)c(F)c3)N3CCCC3)c(O)n2n1 (centres undefined)
i | O=C(CSc1nnc2scc(-c3ccc(Cl)cc3)n12)NCc1ccco1
i | Cc1nc2ccccn2c1C(=O)NCc1cccs1
i | COc1ccc(C(O)=C2C(=O)C(=O)N(c3cc(C)on3)C2c2ccc([N+](=O)[O-])cc2)cc1C (centres undefined)
i | O=C(NCc1ccc2c(c1)OCO2)c1c(O)c2cccnc2[nH]c1=O
i | CCN(CC)S(=O)(=O)c1ccc2c3c(cccc13)C(=O)N2C(=O)c1cccs1
i | Cc1ccc(CSc2nc(CC(=O)NCc3nc(-c4ccccc4)no3)cs2)cc1
i | CCCCn1c(=O)[nH]c2c(C(=O)N3CCN(c4cccc(Cl)c4)CC3)snc2c1=O
i | Cc1ccc(S(=O)(=O)NCCn2ncccc2=O)cc1C
i | Cc1ccc(-c2csc3c(=O)n(C)c(SCC(=O)N(C)c4ccccc4)nc23)cc1
i | COc1ccc(-c2csc(-c3nnn(-c4ccc(C)c(C)c4)c3N)n2)cc1
i | COCCN(Cc1ccoc1)S(=O)(=O)c1cc(F)ccc1OC
i | Nc1c(S(=O)(=O)c2cccs2)c2nc3ccccc3nc2n1/N=C\c1cccs1
i | CSc1ccccc1C(=O)NC1CCCC(OC(=O)Nc2ccccc2)C1 (centres undefined)
i | CCOc1ccc(C(=O)Nc2ccc3c(c2)N(S(=O)(=O)c2ccccc2)CCC3)cc1
i | CCCS(=O)(=O)N1CCCc2ccc(NC(=O)Nc3ccc(C)cc3)cc21
i | COc1ccc(Br)cc1/C=C1\Oc2cc(OS(C)(=O)=O)ccc2C1=O
i | COc1ccc2c(c1)c(CC(=O)Nc1ccc(NC(C)=O)cc1)c(C)n2C(=O)c1ccc(Cl)cc1
i | Cc1c(C(=O)N2CCC(Oc3nc4c(F)cccc4s3)CC2)cnn1-c1ccccc1
i | CCCc1nnsc1C(=O)NCC#CCOc1ccccc1OC
i | CCCC(=O)N1CCC(Cn2ccc3cccnc32)CC1
i | O=C(Nc1nccs1)C(c1ccccc1)n1cccc1 (centres undefined)
i | Cc1cc(C)n(-c2ccc(=O)n(CCNS(=O)(=O)Cc3ccccc3)n2)n1
i | CN(C1CCc2c(c3ccccc3n2CC(=O)O)C1)S(=O)(=O)c1ccc(F)cc1 (centres undefined)
i | Cc1cccc2sc(N3CC(OC(=O)c4ccsc4)C3)nc12
i | O=C(NCC(O)c1ccc2c(c1)CCO2)c1cc(-c2ccco2)on1 (centres undefined)
i | COc1ccc(S(=O)(=O)N2CCOCC2)cc1N(C)S(C)(=O)=O
i | Cc1ccc(C)c(S(=O)(=O)c2cnc(SCC(=O)Nc3ccccc3C)[nH]c2=O)c1
i | COc1ccc(-c2cc(=O)n(CCNC(=O)COc3cccc(C(F)(F)F)c3)cn2)cc1
i | CS(=O)(=O)N1CCC(c2nnc(-c3ccco3)s2)CC1
i | O=C(c1nnn(-c2ccc(Cl)cc2)n1)N1CCN(Cc2ccccc2)CC1
i | COc1ccccc1NC(=O)Cn1nc(-c2cccs2)c2sc(N3CCCC3)nc2c1=O
i | COc1ccc(S(=O)(=O)NCCOc2cc(C)cc(C)c2)c(OC)c1
i | COc1ccccc1-c1ccc(N2CCC(NC(=O)Cc3cccs3)CC2)nn1
i | CCOC(=O)Cn1c(=O)c2c(nc3n(-c4ccc(OC)cc4)c(C)c(C)n23)n(C)c1=O

The results go on.
GIRK2 activ | structure
i | COc1cccc(Oc2cnc(N)nc2-c2ccc(OCc3ccc(C)cc3)cc2O)c1
i | CC(C(=O)NCc1ccccn1)n1nc(-c2ccco2)ccc1=O (centres undefined)
i | O=C(COC(=O)c1cccnc1)c1ccc(-c2ccccc2)cc1
i | COc1cc(C2C3=C(CC(C)(C)CC3=O)Nc3ncnn32)ccc1OC(F)F (centres undefined)
i | COc1ccc(-c2ccc(C#N)c(SCC(=O)N3CCN(C)CC3)n2)cc1
i | O=C(c1cc2ccccc2o1)N1CCC(CSCc2ccco2)CC1
i | COc1ccc(-c2csc3c(=O)n(Cc4ccccc4C)cnc23)cc1
i | COC(=O)Nc1ccc(S(=O)(=O)N2CCCC(C(=O)Nc3ccc4c(c3)OCO4)C2)cc1 (centres undefined)
i | CCCNc1cccc(-n2ncc3c(N/N=C\c4ccncc4)ncnc32)c1
i | CCN=C1SC(CC(=O)NCCc2ccc(OC)c(OC)c2)C(=O)N1CC (centres undefined)
i | O=S(=O)(NCC#CCOc1ccc2c(c1)OCO2)C1CCCCC1
i | CCn1c(SCc2ccc(Cl)c(Cl)c2)nnc1-c1c(C)nc2sccn12
i | COc1ccc(-c2nc(CNC(=O)C3CCCN(c4ccc(-c5cccs5)nn4)C3)cs2)cc1 (centres undefined)
i | Cc1ccc2c(c1)NC(C(=O)Nc1ccc(F)c(Cl)c1)NS2(=O)=O (centres undefined)
i | O=C(Nc1ccon1)C1CCCN(c2ccc(-c3ccco3)nn2)C1 (centres undefined)
i | Cc1ccc(N2N=NC3C(=O)N(c4ccccc4)C(=O)C32)cc1F (centres undefined)
i | CN(C)c1ncc(NC(=O)c2ccccc2C(F)(F)F)cn1
i | COc1ccc(-c2cn3c(C(=O)Nc4cc(C)on4)csc3n2)cc1
i | Cc1cccc(Nc2nc(C(=O)N3CCN(c4cccc(Cl)c4Cl)CC3)cs2)n1
i | O=S(=O)(NCC1(c2ccc(F)cc2)CC1)c1ccc(F)cc1
i | COCCN(Cc1ccsc1)C(=O)NC(c1ccccc1)c1ccccc1
i | CCOC(=O)Cn1cnc2c(-c3ccc(OC)c(OC)c3)csc2c1=O
i | COc1ccc(CNC(=O)NCC#CCOc2cccc(C(F)(F)F)c2)cc1OC
i | COCC(=O)NNC(=O)c1cccn(Cc2ccc(F)cc2)c1=O
i | COc1ccc(NC(=O)c2cn(C)nc2S(=O)(=O)N2CCN(c3ccc(Cl)cc3)CC2)cc1
i | c1ccc(-c2cc(NCCN3CCOCC3)ncn2)cc1
i | Cc1ccccc1OCC(=O)N1CCC(c2nnc(C3CC3)o2)CC1
i | COc1ccc(C(O)CN2CCN(c3ncccn3)CC2)cc1 (centres undefined)
i | FC(F)(F)c1cc(-c2ccccc2)nc(SCc2nc3ccccc3[nH]2)n1
i | O=C(Nc1nc(C(=O)N2CCN(C(=O)c3ccco3)CC2)co1)c1cnccn1
i | O=C(COC(=O)c1ccc(O)cc1O)c1ccc(-c2ccccc2)cc1
i | CC(C)Oc1ccc(-c2noc(-c3nn(-c4cccc(F)c4)ccc3=O)n2)cc1
i | Cc1noc(CNC(=O)c2ccc(OCc3nc(-c4ccco4)cs3)cc2)n1
i | CN(C)S(=O)(=O)c1ccc(C(=O)N2CCCC(c3nnc(-c4cccs4)o3)C2)cc1 (centres undefined)
i | O=C(NC12CC3CC(CC(C3)C1)C2)N1CCOC(c2ccccc2)C1 (centres undefined)
i | COc1ccc(CC(=O)N2CCN(c3nnc(SCC(=O)Nc4ccccc4)s3)CC2)cc1
i | COc1ccc(NC(=O)Cn2nc3c(SC4CCCCC4)nccn3c2=O)cc1OC
i | CC(C)(C)C(=O)NCc1cnn2ccccc12
i | Cc1cc(C(=O)Nc2nc(C(=O)N3CCN(c4ccccc4O)CC3)co2)no1
i | O=C(Cc1ccccc1)N1CCC(c2nnc(C3CC3)s2)CC1
i | Cc1ccc(-n2nnc(C(=O)NC(C)C)c2N)cc1
i | Cc1ccc(S(=O)(=O)NC(C)C)c(C)c1N(C)S(C)(=O)=O
i | CCc1nc2sc(C(c3cccc(C(F)(F)F)c3)N3CCCC3)c(O)n2n1 (centres undefined)
i | O=C(NCC1CCC(c2nc3ccccc3[nH]2)CC1)c1cc(-c2ccco2)[nH]n1 (centres undefined)
i | O=C(Nc1nc2c(s1)CN(C(=O)/C=C/c1cccs1)CC2)c1ccoc1
i | O=C(CNS(=O)(=O)c1ccc(F)c(Cl)c1)N1CCCC1
i | Cc1cc(C)c(S(=O)(=O)NCCC(=O)N(C)C)cc1N(C)S(C)(=O)=O
i | Cc1noc(C2CN(CC(=O)Nc3ccc4c(c3)OCCO4)C2)n1
i | CCN(CC)CC(=O)NC1C2CC3CC(C2)CC1C3 (centres undefined)
i | COc1cccc(-c2csc3c(=O)[nH]c(N4CCCC(C(=O)NCc5ccccn5)C4)nc23)c1 (centres undefined)

Other entries:
GIRK2 activ | structure
i | COc1cc(C(=S)N2CCCC2)cc(OC)c1OC
i | COc1nn(C)cc1C(=O)NC(C)Cc1cccs1 (centres undefined)
i | CC(C(=O)Nc1ccc(-c2cn3c(n2)SCC3)cc1)n1nc(-c2ccccc2)ccc1=O (centres undefined)
i | CCCCc1ccc(NC(=O)Cn2nc3ccc(C(=O)Nc4ccc(OC)cc4)cn3c2=O)cc1
i | O=c1[nH]c(=S)c2c(n1Cc1cccs1)CCC2
i | COc1cccc(C(=O)NCCCS(=O)(=O)N2CCN(c3ccccc3F)CC2)c1
i | COc1ncccc1C(=O)N1CCN(c2ccc(-c3noc(C(F)(F)F)n3)cn2)CC1
i | CCn1c(=O)c2ccccc2n(Cc2nc(-c3ccccc3Cl)no2)c1=O
i | O=C(NCCN1CCOCC1)C(=O)Nc1ccc(N2CCCS2(=O)=O)cc1
i | O=C(NCCc1ccccc1)c1nnn(-c2ccc(Cl)cc2)c1-c1cccnc1
i | COC(=O)C1=CCC23CCC(C(C)(/C=C/C=C(\C)C(=O)O)OC2=O)C3(OC(C)=O)CC1 (centres undefined)
i | CCOc1ccc(NC(=O)C(=O)NCCc2ccoc2)cc1
i | O=C(Cc1ccccc1)NCCOc1ccc2c(c1)OCO2
i | COc1cc(OC)cc(-c2noc(-c3cn(C)c4cc(N5CCCCC5)c(F)cc4c3=O)n2)c1
i | CCOC(=O)Cn1c(=O)c2c(nc3n(-c4ccc(Oc5ccccc5)cc4)c(C)c(C)n23)n(C)c1=O
i | COc1ccc(-c2noc(-c3sccc3S(=O)(=O)N(C)c3ccc(F)cc3)n2)cc1OC
i | O=C(NC1CCCCCC1)N1CCOC2(CCOCC2)C1
i | COc1ccc(NC(=O)c2cccc(Br)c2)cc1N1CCCC1=O
i | COC(=O)c1cc(Nc2ccccc2OC)c2cccc(C)c2n1
i | Cc1ccc(C(O)=C2C(=O)C(=O)N(c3nc(C)c(C)s3)C2c2cccs2)cc1 (centres undefined)
i | O=C(c1cc2ccccc2oc1=O)N1CCC(CSCc2ccco2)CC1
i | O=C(c1cccs1)N(CCn1cccn1)c1nc2c(Cl)cccc2s1
i | COc1ccc(-c2nn3c(N4CCN(c5ccccn5)CC4)cc(C)nc3c2C)cc1OC
i | COc1ccc(-c2c(C)c3ccc4c(c3oc2=O)CN(C2CC2)CO4)cc1
i | O=C(NCCCc1ccccc1)c1ccc(Oc2nccnc2N2CCOCC2)cc1
i | O=C(Cc1cc(=O)[nH]c(SCc2cccc(Cl)c2)n1)NCc1ccc(F)cc1
i | O=c1cc(CN2CCN(Cc3ccc4c(c3)OCO4)CC2)c2cc(Cl)ccc2o1
i | COc1ccc2c(c1)c(CC(=O)NCCO)c(C)n2C(=O)c1ccc(Cl)cc1
